Screening results as filed in PubChem BioAssay.
Vaccinia Venus: qHTS for Stage-Specific Inhibitors of Vaccinia Orthopoxvirus: Venus Reporter Primary qHTS; 0.46% of 330,000 active; Vaccinia virus Venus reporter expression, fluorescence; Potency, µM (titrated, usually from 36.5 µM), inactives show at the top dose activity change, negative = inhibition, usual class: inhibitors; AID 720580, 2013; active means well fitted inhibition curve with a large enough effect; inconclusive means small, poorly fitted or top-dose-only effect; inactive means no such curve, though single readings can be large or run the other way; tested in A549 cells; further: nearly all actives have a fitted effect of over 30% in size; inactives centre near -10
Vaccinia mCherry: qHTS for Stage-Specific Inhibitors of Vaccinia Orthopoxvirus: mCherry Reporter Primary qHTS. AID 720579, 2013. 0.63% of 310,000 active. Potency, µM (doses to about 36.5 µM), for the others: at the highest dose activity change, negative = inhibition, usual class: inhibitors. Vaccinia virus mCherry reporter infection, fluorescence; about a quarter of the inactives have no number; active = well fitted inhibition curve with a large enough effect; inconclusive = small, poorly fitted or top-dose-only effect; inactive = no such curve, though single readings can be large or run the other way; tested in A549 cells; further: nearly all actives have a fitted effect of over 35% in size; inactives centre near -10
The depositor's hits bear a star; i = inactive; u = inconclusive; x = not tested or not shown; & = joins results of further samples; [ ] = another dose, or the depositor's remark. On the % scale 0 is the no-effect control and ±100 the full control effect; potency means the concentration at half of the fitted maximal effect.

smiles,Vaccinia Venus,Vaccinia mCherry
Cc1ccc(CNCC(=O)Nc2cccc(S(=O)(=O)NC3=NCCCCC3)c2)cc1,-7%,i
CC(=O)c1ccc(N2CCN(C(=O)C(=O)c3cn(CC(=O)N4CCCCCC4)c4ccccc34)CC2)cc1,1%,-14%
CCn1cc2c(n1)-c1c(oc(C(=O)Nc3cccc(C)c3C)c1C)CC2,1%,-8%
CC(Oc1ccc(F)cc1)C(=O)Nc1nc(-c2ccccn2)cs1 (stereo not given),u,u
O=C(COc1ccccc1[N+](=O)[O-])N/N=C/c1ccccn1,-7%,i
CCCCCCC(C)(C)c1ccc([C@@H]2C[C@H](O)CC[C@H]2CCCO)c(O)c1,u,u
CCOC(=O)C1=C(C)NC(=O)NC1c1ccc2c(c1)OCO2 (stereo not given),0%,-11%
CC1CC(OC(=O)C2CCN(S(=O)(=O)c3ccc(F)cc3)CC2)C(=O)O1 (stereo not given),4%,-16%
CCOc1ccc(-n2nc3cc(C)c(NC(=O)c4cc(OCC)c(OCC)c(OCC)c4)cc3n2)cc1,10%,-6%
S=C(Nc1ccc(Oc2ccccc2)cc1)NC1CCCCCC1,u,u
Nn1c(Cc2cccc3ccccc23)nnc1SCc1ccc(Cl)c(Cl)c1,-19%,-28%
COc1ccc(OCCNS(=O)(=O)c2ccc3oc4ccccc4c3c2)cc1,-16%,-20%
C(=N\c1nc2ccccc2n1CCN1CCOCC1)/c1cccs1,u,x
O[C@@H]1CCCN2C[C@@H](O)[C@@H](O)C12 (stereo not given in full),-13%[87.9 µM],-18%[87.9 µM]
Cn1c(O)c(/C=N/N2CCOCC2)c(=O)n(C)c1=S,-10%,-17%
COc1ccc(Cl)cc1NC(=O)c1noc2c1CCCC2,-5%,-6%
CCCCn1c(N)c(N(CC(C)C)C(=O)CSCc2ccc(Cl)c(Cl)c2)c(=O)[nH]c1=O,-8%,-11%
CCOC(=O)/C(=C/c1ccco1)NC(=O)c1ccc(Br)o1,-6%,-3%
CCN(CC)c1ccc(C=C2C(=O)OC3(CCCC3)OC2=O)cc1,6%,i
CC1(C)CC(=O)C2=C(C1)NC(=O)NC2c1ccccc1 (stereo not given),-13%,-19%

smiles,Vaccinia Venus,Vaccinia mCherry
CSc1nsc(SC)c1-c1ccc(Cl)cc1,-27%,-18%
CCOc1ccc(-c2cc(C(=O)Nc3cc(OC)c(OC)c(OC)c3)[nH]n2)c(C)c1,-2%,-10%
CCc1ccc(Nc2ccc(C(=O)O)cc2[N+](=O)[O-])cc1,-4%,-15%
COc1ccccc1CNc1nc(NCCNC(C)=O)c2sccc2n1,-8%,-16%
O=c1c(-c2n[nH]c(=S)n2-c2ccccc2)cccn1Cc1cccc(Cl)c1,-8%,-1%
CC[C@@H]1C=C(C(=O)O)[C@H](c2ccc(Br)cc2)N1S(=O)(=O)c1ccc(C)cc1,-11%,-13%
CNC(=O)Cn1ncc2c(C)n(Cc3ccc(C)cc3)c(C)c2c1=O,-3%,-13%
O=S1(=O)CC(N2CCCC2)CN1Cc1ccc(F)cc1 (stereo not given),6%,29%
O=C(Nc1cccc(C(F)(F)F)c1)C1Cc2c(-c3cccc(F)c3)ccnc2O1 (stereo not given),-17%,-4%
COc1cc2c(cc1OC)/C(=C/C(=O)c1ccc(NC(C)=O)cc1)NCC2,-10%,-20%
COc1ccccc1N(C)S(=O)(=O)c1ccc(C(=O)OCC(=O)NCc2ccco2)cc1,-29%,-8%
CCN(C(=O)Cn1nc(Cc2ccncc2)c2ccccc2c1=O)c1cccc(Cl)c1,-5%,-2%
O=C(Nc1nccs1)c1ccc(N2C(=O)C3CCCCC3C2=O)cc1 (stereo not given),-9%,-2%
Cc1oc(-c2ccc(Cl)cc2)nc1CS(=O)CC(=O)N1CCN(c2cccc(C(F)(F)F)c2)CC1 (stereo not given),-26%,u
C[N+]1(CC(=O)Nc2ccccc2Cl)CCN(C(=O)c2cccs2)CC1,u,-19%
CCn1cc(CN2CCC(n3nccc3NC(=O)c3ccccc3C)CC2)cn1,-3%,i
Cc1cccc(NC(=O)c2cnc3sc(N4CCCC4)nn3c2=O)c1C,-5%,-12%
O=C(CCNS(=O)(=O)c1ccccc1)N1CCC(Cc2ccccc2)CC1,-14%,-19%
CNC(=O)c1nnsc1S(=O)(=O)c1ccc(Cl)cc1,u,u
Cc1ccc(-n2ncc3c(N4CCC5(CC4)OCCO5)ncnc32)c(C)c1,-7%,-2%

smiles,Vaccinia Venus,Vaccinia mCherry
CC1CN(C(C)C(=O)NC(c2ccccc2)c2ccccc2)CC(C)O1 (stereo not given),-6%,-19%
COc1ccccc1N(C(=O)CN1C(=O)c2ccccc2S1(=O)=O)C(C(=O)NCC1CCCO1)c1ccc(F)cc1 (stereo not given),-5%,-9%
COc1ccccc1CNC(=O)COC(=O)c1ccccn1,-6%,-23%
CCc1ccccc1NC(=O)CN1C(=O)c2ccccc2Sc2ncccc21,-13%,-13%
CSc1ccc(CN2CCC2(C)C(=O)Nc2ccc(C)c(O)c2)cc1 (stereo not given),-11%,-10%
Cc1cc(C)nc(-n2nc(C)c3c2N(C)C(=O)CC3c2ccc(Cl)cc2)n1 (stereo not given),-3%,3%
O=C1CC(c2cccs2)Cc2nc(NC(=O)C3CC3)ncc21 (stereo not given),-11%,-3%
Cc1ccc(Cl)cc1NC(=O)Nc1cccc(OCc2cc(=O)n3ccccc3n2)c1,-9%,-8%
Cc1ccc2nsnc2c1N,-7%,i
COc1cccc(Nc2nc3ccc(OC)cc3s2)c1,-17%,-28%
C=CCNc1nc(C(=O)OCC(=O)Nc2cc(S(C)(=O)=O)ccc2Cl)cs1,-10%,i
COc1ccc(/C=N/NC(=O)c2c([N+](=O)[O-])c(C)nn2C)cc1,-6%,-11%
O=C(N/N=C/c1ccco1)c1ccccn1,-6%,-12%
COc1ccc2c(CC(=O)Nc3nnc(C4CC4)s3)coc2c1,-8%,-14%
Nc1c2c(nc3sc4c(c13)CCCCC4)CCCCC2,-27%,-12%
COC(=O)c1ccc(COc2ccccc2/C=N/O)o1,14%,i
O=C(NCc1nnc2c(C(F)(F)F)cc(Cl)cn12)c1ccc(Br)o1,-9%,i
C/C=C/C=N/Nc1nc(-c2ccc([N+](=O)[O-])cc2)cs1,-16%,i
Cc1ccoc1C(=O)N1CCCC(CO)(Cc2ccc(F)cc2)C1 (stereo not given),-11%,-10%
CC(C)Cn1c(=O)c2ccccc2n2c(CCC(=O)Nc3ccc(F)c(F)c3)nnc12,-15%,i

Full records, quoted from the list:
`C/C=C/C=N/Nc1nc(-c2ccc([N+](=O)[O-])cc2)cs1` in the list: Vaccinia Venus: -16%; Vaccinia mCherry: i
`Cc1cc(C)nc(-n2nc(C)c3c2N(C)C(=O)CC3c2ccc(Cl)cc2)n1` (stereo not given) in the list: Vaccinia Venus: -3%; Vaccinia mCherry: 3%
`COc1ccccc1CNC(=O)COC(=O)c1ccccn1` in the list: Vaccinia Venus: -6%; Vaccinia mCherry: -23%

Following part:
smiles,Vaccinia Venus,Vaccinia mCherry
COc1ccc(-c2cn3c(n2)sc2cc(C(=O)NCCCN4CCCCCC4)ccc23)cc1,u,u
CCC(=O)NC(=S)Nc1ccccc1C(=O)NC1CCCCC1,2%,-8%
CCN(CC)S(=O)(=O)c1ccc(NC(=O)c2ccc(NS(C)(=O)=O)cc2)cc1,-16%,u
COc1cc(NC(=O)CN(c2ccc(C)cc2)S(=O)(=O)c2c(C)noc2C)cc(OC)c1,-25%,-15%
Cc1ccc(-c2cc(-c3ccc(C)cc3)[n+](-c3ccc(C(=O)[O-])cc3)c(-c3ccc(C)cc3)c2)cc1,-12%,-13%
Cc1cccc(Cn2cc(S(=O)(=O)c3cccc(Cl)c3)c(=O)c3cc(F)c(N4CCOCC4)cc32)c1,-15%,-6%
Cc1ccc(S(=O)(=O)N2CC3(O)CN(C(=O)OC(C)C)N(C(=O)OC(C)C)CC3(OC(=O)NCc3ccco3)C2)cc1 (stereo not given),-6%,-4%
CN(C)c1ccc(NC2=C([N+](=O)[O-])CS(=O)(=O)C2)cc1,-4%,-13%
O=C(Cc1cccc2ccccc12)N/N=C/c1ccc(O)c([N+](=O)[O-])c1,-5%,6%
CC(NC(=O)c1cc(F)ccc1F)c1nnc2n1CCN(Cc1cccs1)CC2 (stereo not given),-7%,-17%
O=C(Nc1ccc(O)c2c(=O)cc(-c3ccccc3Cl)oc12)c1cccc(Cl)c1,u,-4%
CC(C)(C)n1nnnc1C(c1cc2ccccc2o1)N1CCCCC1 (stereo not given),1%,3%
O=c1[nH]cnc2ccccc12,-2%,3%
COc1ccc(N(CC(=O)O)S(=O)(=O)c2ccc(OC)c(OC)c2)cc1,-12%,-20%
C=C[C@@H]1c2ccccc2N(S(=O)(=O)c2ccc(C)cc2)[C@H](c2ccccc2C(F)(F)F)C1(C#N)C#N,-6%&-8%,u
CC1(C)Cc2cccc(OCC(=O)N3CCN(c4cccc(Cl)c4)CC3)c2O1,-16%,-4%
c1ccc(CN2CCN(c3ncnc4c3cnn4-c3ccccc3)CC2)cc1,3%,-14%
CCOCC(=O)N1CCN(c2ccccc2OC)CC1,2%,4%
Cc1ccc(C)c(Cn2c(=O)n(C)c(=O)c3sccc32)c1,-3%,-8%
CCCS(=O)(=O)n1nc(-c2ccc(OC)cc2)cc1N,-7%,-5%

smiles,Vaccinia Venus,Vaccinia mCherry
CCCN1CCOC(CC(=O)Nc2ccc([N+](=O)[O-])cc2)C1=O (stereo not given),-2%,5%
O=C(/C=C/c1ccccc1)Nc1cc(S(=O)(=O)N2CCOCC2)ccc1N1CCCC1,-21%,i
CCc1nc2c(OCC(=O)C(C)(C)C)cccn2c1N(C)C(=O)Nc1ccccc1OC,-2%,-7%
CC1(C)CC(=O)C2=C(C1)Nc1ccccc1NC2,-21%,u
CN1CCCCC1CCN1c2ccccc2Sc2ccc(S(C)=O)cc21 (stereo not given),-26%,-27%
CCOC(=O)[C@]12CCC=C1N(CCC1=CCCCC1)C(=O)[C@H](CC(=O)N1CCCC1)C2,-6%,-17%
CCOc1ccc(NC(=O)CN(C)C(=O)c2ccc(N3CCOCC3)c([N+](=O)[O-])c2)cc1OCC,-19%,-13%
CCOc1ccc(/C=N/NC(=O)CNC(=O)c2ccc(S(=O)(=O)N3CCOCC3)cc2)cc1,-11%,-13%
CCN1C(=O)/C(=C\N2CCCCCC2)SC1=S,-12%,-20%[1.46 µM]
CCC(=O)Nc1ccc2nc3c(=O)n(C)c(=O)n(C)c3nc2c1,2%,-3%
Oc1csc(Cc2nc(-c3ccc4ccccc4c3)cs2)n1,-6%,-18%
COCCNCc1nc2sc(C)c(-c3ccccc3)c2c(=O)[nH]1,-5%,i
COc1ccc(/C(C)=N/NS(=O)(=O)c2cc(C)ccc2C)c(OC)c1,2%,5%
CC(C)(C)NC(=O)c1cc(F)c(F)cc1Cl,4%,-11%
Cc1cccc(CCNC(=O)C2CCC(CNS(=O)(=O)c3ccccc3)CC2)c1 (stereo not given),-5%,-21%
CC1CCc2nn(CC(=O)Nc3cccc(C(F)(F)F)c3)c(=O)cc2C1 (stereo not given),-3%,-9%
CCS(=O)(=O)CCSc1nc2ccccc2o1,-7%,-11%
O=C1NC2(CCCCCC2)N=C1c1ccc(F)cc1,-24%,i
COCCCNC(=O)CSc1nc2c(sc3ccccc32)c(=O)n1CCCC(=O)NCCOC,-12%,-15%
CC1Cc2ccccc2N1S(=O)(=O)c1cccc(C(=O)N2CCCCC2)c1 (stereo not given),u,i

smiles,Vaccinia Venus,Vaccinia mCherry
COc1ccc(C)cc1NC(=O)C1CC(=O)N(Cc2ccco2)C1 (stereo not given),-6%,-15%
COc1cc2c(=O)n(-c3ccc(C)cc3)c(=O)n(CC(=O)c3ccc4c(c3)OCO4)c2cc1OC,-1%,x
Cc1cc(C(=O)COc2cccnc2[N+](=O)[O-])c(C)n1Cc1cccs1,-21%,u
O=C(Nc1nc(-c2ccncc2)cs1)c1ccco1,8%,6%
Cc1cccc(NC(=O)CNC(=O)COC(=O)c2ccc(C(C)(C)C)cc2)c1C,-10%,i
Cc1ccccc1CNC(=O)c1ccc(NC(=O)c2nsc3ccccc23)cc1,-6%,1%
CCc1cccc(NC(=O)C2CCCN(S(=O)(=O)c3ccc4[nH]c(=O)ccc4c3)C2)c1 (stereo not given),-8%[7.34 µM],i[7.34 µM]
O=C(CSc1ccc2c(c1)OCCO2)NCc1ccco1,-1%,-15%
CC1(C(=O)NS(=O)(=O)c2ccccc2Cl)CCN1C(=O)c1ccccc1CCc1ccccc1 (stereo not given),-1%,15%
O=c1oc(-c2cc3ccccc3o2)nc2sc3c(c12)CCCC3,-12%,i
CC(C)[C@@H](NC(=O)C1CCN(C(=O)[C@@H]2CCCN2C(=O)OC(C)(C)C)CC1)C(=O)NCc1ccc(F)cc1,0%,-16%
